NS1 inh: blocks influenza NS1 protein function; AID 2326; S. cerevisiae slowed by influenza A NS1, growth recovery by OD600; Potency, µM (series often up to 46.1 µM), for inactives: at the highest dose activity, positive = more growth; 270,000 compounds, 0.4% hits; active means well fitted rising curve with a large enough effect; inconclusive means small, poorly fitted or top-dose-only effect; inactive means no such curve, though single readings can be large or run the other way; note: nearly all actives have a fitted effect of over 50% in size
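In this qHTS, NS1 from influenza A is expressed in budding yeast, where it slows growth. Cells are switched from glucose to 2% galactose medium (pH 6.0, -URA), treated with compound, and growth recovery is read at OD600.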
Cruzain Triton: blocks cruzain activity in presence of Triton detergent; P25779; 200,000 compounds, 0.43% hits; Potency, µM, for inactives: max response, negative = inhibition, most hits filed as inhibitors; purified cruzain, Z-FR-AMC fluorescence, 0.01% Triton;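 note: plate controls were neutral wells for no effect and buffer without enzyme for full effect; nearly all actives have a fitted effect of over 40% in size; top concentration of the series not given in the record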
Target sequence (P25779 123-467 limits assumed): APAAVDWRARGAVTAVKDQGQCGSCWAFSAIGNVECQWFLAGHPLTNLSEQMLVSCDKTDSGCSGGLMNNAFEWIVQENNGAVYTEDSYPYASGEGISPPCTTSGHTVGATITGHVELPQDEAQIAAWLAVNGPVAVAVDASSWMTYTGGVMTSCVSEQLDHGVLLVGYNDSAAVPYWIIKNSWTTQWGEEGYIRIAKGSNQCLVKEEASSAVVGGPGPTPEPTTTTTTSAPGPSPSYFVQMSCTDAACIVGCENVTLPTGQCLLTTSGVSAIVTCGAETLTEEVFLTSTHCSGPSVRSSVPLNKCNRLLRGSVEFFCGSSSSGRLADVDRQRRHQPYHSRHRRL
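Detergent-containing arm of a paired screen for aggregation-based inhibition: 0.01% Triton X-100 present. Cruzain at 1.5 nM cleaved 2 uM Z-FR-AMC at pH 5.5 with 5 mM DTT; AMC fluorescence gain over 60 s measured activity.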
LASV entry inh: Lassa virus entry inhibition | Lassa virus pseudotype entry inhibition, cell reporter; control for the full effect not named in the record | Potency, µM (titrated, usually from 37.9 µM), for inactives: at the highest dose activity change, negative = inhibition, usual class: inhibitors | 300,000 compounds, 1.2% hits; active means well fitted inhibition curve with a large enough effect; inconclusive means small, poorly fitted or top-dose-only effect, or effect the other way; inactive means flat fitted curve, though single readings scatter; tested in HEK293 cells; note: % is set by controls: 0 for no effect and ±100 for the full control effect; nearly all actives have a fitted effect of over 50% in size; luciferase read-out
2A StopGo: FMDV 2A StopGo reporter, luciferase signal; human cells with a luciferase reporter of 2A StopGo recoding; control for the full effect not named in the record; Potency, µM (top dose mostly 57.9 µM), inactives show at the top dose signal change, negative = less light; 410,000 compounds, 1.2% hits; AID 1159524; active = well fitted falling curve with a large enough effect; inconclusive = small, poorly fitted or top-dose-only effect; inactive = no such curve, though single readings can be large or run the other way; tested in HEK293T cells; note: % is set by controls: 0 for no effect and ±100 for the full control effect; nearly all actives have a fitted effect of over 45% in size; luciferase light after 4 h
SARS PLpro yeast: inhibitors of SARS-CoV papain-like protease in yeast; S. cerevisiae expressing SARS-CoV PLpro, growth rescue; control for the full effect not named in the record; Potency, µM (highest dose often 32.9 µM), for inactives: at the top dose activity, positive = growth rescue; 330,000 compounds, 0.19% hits; AID 485353; active means well fitted rising curve with a large enough effect; inconclusive means small, poorly fitted or top-dose-only effect; inactive means no such curve, though single readings can be large or run the other way; note: 0% is about no effect; nearly all actives have a fitted effect of over 55% in size; growth read by luminescence after 48 h
RE007 growth inh: less growth of the S. pombe RE007 Vpr strain; 360,000 compounds, 0.21% hits; S. pombe RE007 Vpr strain, BacTiter-Glo ATP luminescence, 24 h; control for the full effect not named in the record; Potency, µM (top dose mostly 92.2 µM), for inactives: at the highest dose activity change, negative = less growth; AID 651644; active = well fitted falling curve with a large enough effect; inconclusive = small, poorly fitted or top-dose-only effect; inactive = no such curve, though single readings can be large or run the other way;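 note: % is set by controls: 0 for no effect and ±100 for the full control effect; nearly all actives have a fitted effect of over 50% in size; the assay follows cell death caused by Vpr and the record does not say whether a fall means rescue or toxicity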
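Fission yeast RE007 carrying one integrated HIV-1 vpr copy, seeded at OD 0.01 in PMG+AL medium with 23 nL pinned compound. Grown 24 h at 30 degrees; viability read by BacTiter-Glo luminescence after 5 min.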
Marburg entry inh: blocks Marburg virus binding to or entry into cells; Marburg virus pseudotyped entry inhibition, cell reporter; control for the full effect not named in the record; about a third of the inactives were read at about 46 µM; Potency, µM (highest dose often 37.8 µM), for inactives: top-dose activity change, negative = inhibition, hits mostly inhibitors; 300,000 compounds, 1.8% hits; active = well fitted inhibition curve with a large enough effect; inconclusive = small, poorly fitted or top-dose-only effect, or effect the other way; inactive = flat fitted curve, though single readings scatter; tested in HEK293 cells; about a fifth of its hits are not listed in these tables; note: % is set by controls: 0 for no effect and ±100 for the full control effect; luciferase read-out
Cruzain inh noDet: blocks cruzain activity in detergent-free assay; Potency, µM, for the others: max response, negative = inhibition, actives largely listed as inhibitors; P25779; AID 1476; 200,000 compounds, 2.3% hits; purified cruzain, Z-FR-AMC fluorescence, no detergent;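 note: plate controls were enzyme without inhibitor for no effect and buffer without enzyme for full effect; nearly all actives have a fitted effect of over 40% in size; top concentration of the series not given in the record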
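Purified cruzain at 1.5 nM, pre-incubated 15 min with compound at room temperature in 100 mM sodium acetate pH 5.5, 5 mM DTT, 0.00005% Triton X-100. Reaction started with 2 uM Z-FR-AMC; AMC fluorescence increase over 60 s gives rate.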
* = called active by the depositor; ? = inconclusive; nt = not tested or not shown; & = joins results of further samples; [ ] = dose if it differs, or a comment. Unless noted, calls come from the whole dose curve; as a rule, active = well fitted curve in the direction sought with a large enough effect; inconclusive = small, poorly fitted or top-dose-only effect, or another doubt; inactive = no such curve, though single readings can be large; an effect the other way counts as inactive or inconclusive. Potency is the fitted concentration of half-maximal effect.

No.	smiles	LASV entry inh	SARS PLpro yeast	Cruzain Triton	RE007 growth inh	Marburg entry inh	Cruzain inh noDet	NS1 inh	2A StopGo
1	CCC(C)NC(=O)CSc1nc2ccccc2c(=O)n1Cc1ccc(OC)cc1 (configuration not stated)	1.2%	-3.5%	5.0%	8.9%	14.1%	18.0%	3.2%	0.0%
2	CCOC(=O)Cc1csc(NC(=O)CCc2ccccc2)n1	nt	8.7%	nt	11.9%	nt	nt	0.6%	-19.7%
3	CCC/C(O)=C1\C(=O)CC(c2ccccc2)CC1=NC(C)C(=O)O (configuration not stated)	3.9%	-4.4%	-4.0%	1.6%	-24.5%	-9.7%	9.5%	2.1%
4	CCN(Cc1ccccc1)S(=O)(=O)c1ccc(C(=O)N(CCCN(C)C)c2nc3cc(C)cc(C)c3s2)cc1	?	-7.3%	nt	32.0%	10µM*	nt	nt	-21.9%
5	N#C/C(=C(O)\C=C\c1ccccc1)c1nc2ccccc2[nH]1	nt	2.1%	nt	6.7%	nt	nt	-3.4%	4.2%
6	CCCCC(=O)Nc1cc(OCC)c(NC(=S)NC)cc1OCC	-6.6%[46.1 µM]	0.4%	nt	5.8%	1.8%[46.1 µM]	nt	nt	11.7%
7	C/C(CC(=O)Nc1ccc(N(C)C)cc1)=N\NC(=O)c1ccc(C(C)(C)C)cc1	nt	-5.3%	nt	-11.6%	nt	nt	11.9%	19.4%
8	Cc1cc2nc(=O)c(/C=C3\C=Nc4ccccc43)c(N)n2o1	nt	1.3%	nt	11.3%	nt	nt	-1.9%	7.5%
9	CC1(C)COCN1C(=O)c1ccc(C#N)cc1	8.4%[46.1 µM]	-0.3%	nt	-7.3%	-9.0%[46.1 µM]	nt	3.6%	25.5%
10	COc1ccc(CCNC(=O)C2CCN(S(=O)(=O)c3ccc(SC)cc3)CC2)cc1	nt	-9.6%	nt	2.6%	nt	nt	8.1%	-22.7%
11	COc1cc(/C=C2/NC(=O)N(CC(=O)Nc3ccc(C)cc3)C2=O)ccc1Oc1ccc([N+](=O)[O-])cn1	nt	-0.3%	nt	-10.7%	nt	nt	3.2%	-17.5%
12	CCCCc1nnc(SC(C)C(=O)Nc2nccs2)n1C (configuration not stated)	?	2.0%	nt	5.9%	5.3%	nt	8.8%	-7.0%
13	Cc1ccc(C(=O)NCCN2CCOCC2)c(Cl)c1	nt	-2.3%	nt	17.4%	nt	nt	7.3%	47.2%[activator]
14	Cc1ccccc1-c1nn(-c2ccc(F)cc2F)cc1CNCC(C)O (configuration not stated)	nt	-1.3%	nt	-17.7%	nt	nt	1.5%	1.5%
15	O=C(CCC(=O)N1CCN(Cc2ccc(F)cc2)CC1)Nc1nnc(C(F)(F)F)s1	nt	1.3%	nt	-3.8%	nt	nt	-1.0%	-8.0%
16	c1ccc(CNCCc2ccc3c(c2)OCO3)nc1	1.1%	-3.2%	0.1%	-8.3%	-10.5%	1.8%	-0.6%	nt
17	CC1(C(=O)N2CCC(CO)(Cc3cccc(C(F)(F)F)c3)CC2)CC1	nt	0.4%	nt	-12.6%	nt	nt	16.3%	?
18	O=C(CSc1nncn2c1cc1occc12)Nc1ccc(F)c(Cl)c1	2.6%[46.1 µM]	nt	-6.3%	nt	nt	-8.7%	nt	-20.0%
19	Nc1c(C(=O)Nc2ccc(F)c(F)c2)sc2nc(-c3ccncc3)ccc12	10.9%[46.1 µM]	nt	-3.4%	nt	2.4%[46.1 µM]	-3.2%	nt	-12.4%
20	O=c1cc(CSc2ccccn2)c2ccccc2[nH]1	0.0%	-0.8%	-0.1%	0.4%	-26.9%	-6.3%	5.0%	-1.1%
21	O=C(NCc1ccccc1)c1cccc(F)c1F	nt	-0.7%	nt	8.6%	0.2%[46.1 µM]	nt	-0.3%	0.0%
22	COc1ccccc1NC(=O)CCNC(=O)Cn1ccc2ccccc2c1=O	-2.2%	-5.3%	4.9%	18.2%	3.2%	-0.2%	-3.1%	4.7%
23	COc1cc([N+](=O)[O-])ccc1N=Nc1c(N)[nH]n(-c2ccccc2)c1=O	14.2%	0.1%	nt	10.6%	3.9%[46.1 µM]	nt	nt	24.5%
24	CCCS(=O)(=O)N1CCC(C(=O)NCCC(C)C)CC1	0.3%	-2.5%	nt	7.2%	4.6%	nt	nt	-10.8%
25	COC(=O)c1ccc(NC(=O)CSc2nc3c(c(=O)n(C)c(=O)n3C)n2Cc2ccccc2)cc1	5.1%[46.1 µM]	nt	-3.4%	nt	-16.9%[46.1 µM]	-5.9%	nt	-27.2%
26	Cc1cc(N(CN2CCCC2=O)C(=O)c2ccccc2)no1	19.0%	7.1%	1.3%	4.5%[3.69 µM]	9.4%	-2.1%	-0.2%	6.0%
27	FC(F)(F)c1cnc(Oc2ccccc2-c2nnco2)c(Cl)c1	2.9%	8.6%	-4.3%	1.6%	-1.2%	-3.8%	5.8%	-3.7%
28	COC1(C)CC2C(CC1OC(=O)c1cc([N+](=O)[O-])cc([N+](=O)[O-])c1)C2(C)C (configuration not stated)	11.1%&8.5%	-81.7%	-1.4%	-19.8%	?	-17.2%	-23.8%	-21.5%
29	CCN(C(=O)COC(=O)c1cc(-c2ccccc2)nc2ccc(Br)cc12)C1CCS(=O)(=O)C1 (configuration not stated)	0.3%	-3.4%	nt	0.7%	-26.2%	nt	nt	-24.7%
30	Cc1ccc(NC(=O)CNC2CCCCC2)cc1Cl	nt	2.3%	nt	2.7%	nt	nt	-2.6%	-1.4%
31	O=C(CSc1nnc(NCc2ccccc2)s1)N1CCOCC1	0.5%	7.3%	1.2%	-0.8%	-18.6%	5.3%	-2.1%	-5.2%
32	COc1ccc(-c2cc(C(F)(F)F)nc(-n3ccnc3)n2)cc1	3.8%[46.1 µM]	-0.1%	nt	3.2%	?	nt	nt	?
33	CCOc1ccc(N/C=C\C(=O)c2ccc3c(c2)OCO3)cc1	1.0%	nt	nt	-10.7%	-5.9%	nt	nt	8.9%
34	Cc1cccc(NC(=O)Nc2c(C)n(C)n(-c3ccccc3)c2=O)c1C	nt	3.6%	nt	18.8%	nt	nt	-0.5%	-15.0%
35	COc1ccc(C(c2nnnn2Cc2ccc(F)cc2)N2CCN(c3ccc(OC)cc3)CC2)cc1 (configuration not stated)	3.16µM*	-13.7%	1.1%	9.5%	?	14.8%	-30.4%	0.0%
36	O=C(COC(=O)c1ccc(O)cc1)Nc1ccc(N2CCCCC2)cc1	3.6%	6.4%	-2.3%	-8.6%	-13.4%	-6.4%	6.4%	17.4%
37	NS(=O)(=O)c1ccc(CCNC(=O)C2COc3ccccc3O2)cc1 (configuration not stated)	nt	-0.1%	nt	4.7%	nt	nt	-9.2%	10.2%
38	COc1ccc(NC(=O)c2cccnc2Sc2ccccc2)c(OC)c1	3.6%	-6.4%	-4.0%	1.4%	0.3%	0.0%	1.2%	28.7%
39	Cc1ccc(CN2CCC(CNC(=O)c3cnn(-c4ccc(C)cc4)c3C3CCN(C(=O)OC(C)(C)C)CC3)CC2)cc1	?	nt	-3.6%	nt	nt	-3.6%	nt	-4.3%
40	NCCCP(=O)(O)CCc1ccccc1	9.4%	-5.7%	4.1%	12.0%	8.9%	-2.1%	-1.4%	nt

Excerpt, entries 39–40
No.	smiles	LASV entry inh	SARS PLpro yeast	Cruzain Triton	RE007 growth inh	Marburg entry inh	Cruzain inh noDet	NS1 inh	2A StopGo
39	Cc1ccc(CN2CCC(CNC(=O)c3cnn(-c4ccc(C)cc4)c3C3CCN(C(=O)OC(C)(C)C)CC3)CC2)cc1	?	nt	-3.6%	nt	nt	-3.6%	nt	-4.3%
40	NCCCP(=O)(O)CCc1ccccc1	9.4%	-5.7%	4.1%	12.0%	8.9%	-2.1%	-1.4%	nt

Next records
No.	smiles	LASV entry inh	SARS PLpro yeast	Cruzain Triton	RE007 growth inh	Marburg entry inh	Cruzain inh noDet	NS1 inh	2A StopGo
41	Cn1c(SCc2cccc(C(F)(F)F)c2)nnc1-c1ccco1	5.9%	-6.5%	1.9%	-14.6%	-1.2%	-4.1%	-59.5%	-1.8%
42	COCCNC(=S)N1CCN(c2nc(-c3cccc(OC)c3)cs2)CC1	1.3%[46.1 µM]	-14.4%	nt	7.5%	?	nt	15.9%	-1.0%
43	CC1CCCN(CCC(=O)c2ccc(Br)cc2)C1 (configuration not stated)	-15.8%	-12.8%	?	0.6%	?	5.01µM*	-81.1%	0.0%
44	CN1CCN(C(=O)CN(CCc2ccccc2)S(C)(=O)=O)CC1	2.3%	8.9%	6.6%	-5.7%	-0.8%	5.1%	1.3%	nt
45	O=C(Nc1ccc(Cl)c(Cl)c1)N(Cc1cccnc1)Cc1ccco1	12.7%	-27.5%	-5.4%	-6.3%	-16.2%	4.8%	-132.5%	?
46	CC(C)CN(C(=O)CSc1nnc2ccccn12)c1c(N)n(CC(C)C)c(=O)[nH]c1=O	?	1.9%	5.4%	-2.4%	6.0%	28.4%	5.3%	14.9%
47	COc1ccc(NC(=O)C2CCCN(S(=O)(=O)c3cccc4cccnc34)C2)c(OC)c1 (configuration not stated)	nt	-3.4%	0.7%	-5.2%	6.8%	-4.5%	-14.3%	-23.3%
48	COc1ccc(Cn2c3ccc(OC)cc3c3nc4ccccc4nc32)cc1	14.0%	-11.6%	-1.4%	-10.0%	?	-7.8%	4.8%	-8.8%
49	NC(=O)c1nsc(C(=O)N(Cc2ccc(F)cc2)C(C(=O)NCC2CCCO2)c2ccc(O)cc2)c1N (configuration not stated)	nt	11.1%	nt	-2.2%	6.9%[46.1 µM]	nt	-6.4%	0.0%
50	Cc1ccc(NC(=S)NCC2CCN(C(C)c3ccccc3)C2)cc1 (configuration not stated)	-2.2%[46.1 µM]	0.1%	nt	1.9%	?	nt	nt	1.0%
